ClpP mod: qHTS Assay for Activators of ClpP. ATP-dependent Clp protease proteolytic subunit (Bacillus subtilis (strain 168)), P80244. purified B. subtilis ClpP, FRET peptide cleavage, 20 min. Potency, µM (doses to about 57.5 µM), for the others: top-dose activity change, negative = active. 1.9% of 340,000 active. AID 651965, 2013; active = well fitted falling curve with a large enough effect; inconclusive = small, poorly fitted or top-dose-only effect; inactive = no such curve, though single readings can be large or run the other way; further: potency means the concentration at half of the fitted maximal effect; the source files actives as falling curves though it sought activators and does not explain the sign; nearly all actives have a fitted effect of over 65% in size; many hits overshoot -100%
Target sequence (P80244 whole entry, looked up): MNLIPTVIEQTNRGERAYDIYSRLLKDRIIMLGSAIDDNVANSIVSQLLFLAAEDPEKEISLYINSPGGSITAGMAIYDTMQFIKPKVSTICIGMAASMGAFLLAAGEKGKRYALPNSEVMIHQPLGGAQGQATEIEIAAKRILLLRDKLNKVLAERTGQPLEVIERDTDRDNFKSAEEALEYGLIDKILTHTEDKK
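Buffer: 100 mM Tris/HCl pH8, 100 mM KCl, 0.05% low protease BSA, 2.5% glycerol, 0.01% Tween-20. ClpP 10 microg/mL final; 20 min RT; delta FRET normalized to ADEP and DMSO controls.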
D2 PAM: Beta-Arrestin HTS for Positive Allosteric Modulators of the Human D2 Dopamine Receptor: Potentiators; D(2) dopamine receptor (Homo sapiens), P14416; DiscoveRx D2 beta-arrestin cells, luminescence, 90 min; 100% = 57 uM dopamine signal; potentiation, % (no concentration beside the values); 0.23% of 360,000 active; active = potentiation of 50% or more; inconclusive = 30% to 50%; inactive = 30% or less;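 further: compound concentration not given in the record; tested on top of an EC20 dose of dopamine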
Target sequence (P14416 whole entry, looked up): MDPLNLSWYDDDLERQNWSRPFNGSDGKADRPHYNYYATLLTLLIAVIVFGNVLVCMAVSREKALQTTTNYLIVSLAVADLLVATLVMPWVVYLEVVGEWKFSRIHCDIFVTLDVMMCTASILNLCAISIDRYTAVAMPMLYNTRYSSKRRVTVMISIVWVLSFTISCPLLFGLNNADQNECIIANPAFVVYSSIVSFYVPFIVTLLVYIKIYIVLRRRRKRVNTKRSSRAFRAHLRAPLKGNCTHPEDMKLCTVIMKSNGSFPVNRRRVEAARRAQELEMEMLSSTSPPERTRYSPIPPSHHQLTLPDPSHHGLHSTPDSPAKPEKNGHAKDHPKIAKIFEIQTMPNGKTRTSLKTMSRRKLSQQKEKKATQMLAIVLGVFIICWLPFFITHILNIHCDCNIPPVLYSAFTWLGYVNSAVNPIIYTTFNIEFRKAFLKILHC
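D2 cells co-treated with compound plus 50 nM dopamine (EC20) for 90 min at 37 deg C to detect potentiation. Beta-arrestin recruitment was read as enzyme-fragment luminescence after 1 h at ambient temperature. Full response was set by 57 uM dopamine.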
Menin-MLL FL inh: qHTS Assay for Inhibitors Targeting the Menin-MLL Interaction in MLL Related Leukemias: Competition With Fluorescein Labeled MLL-derived Peptide; Fluorescence polarization, fluorescein-MLL peptide displacement from menin; 290,000 tested, under 10 active; FP activity change, % at 61.4 µM; inconclusive = falling polarisation curve, or a change in total fluorescence; inactive = total fluorescence flat and polarisation flat or rising; no compound was filed as active; the % refers to the polarisation; negative = inhibition;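 further: % of control where 0% means no effect; inhibitors lower the polarisation; unlabelled MLL peptide was the positive control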
gsp ag: qHTS for Agonist of gsp, the Etiologic Mutation Responsible for Fibrous Dysplasia/McCune-Albright Syndrome: qHTS; Potency, µM (series often up to 76.9 µM), without a hit: at the highest dose activation (cAMP increase), actives largely listed as activators; 0.13% of 340,000 active; AID 624287, 2012; gsp mutant cells, cAMP HTRF, 30 min; control for the full effect not named in the record; active = well fitted activation curve with a large enough effect; inconclusive = small, poorly fitted or top-dose-only effect, or another doubt; inactive = no such curve, though single readings can be large or run the other way; cell line not stated here;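 further: phosphodiesterase inhibitor Ro 20-1724 added with compounds to block cAMP breakdown; potency means the concentration at half of the fitted maximal effect; nearly all actives have a fitted effect of over 60% in size; about a fifth of the inactives were tested at one dose only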
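Cells stably selected in G418 were plated at 2000/well, grown 16-24 hr, then given compounds in DMSO with the PDE inhibitor […] (300 uM solution added) for 30 min at 37C; cAMP was read by HTRF.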
Sfp inh: qHTS Assay for Inhibitors of Bacillus subtilis Sfp phosphopantetheinyl transferase (PPTase) | Biochemical Sfp PPTase activity, qHTS | Potency, µM, inactives show max response, negative = inhibition, actives largely listed as inhibitors | 3.5% of 310,000 active; active means well fitted inhibition curve with a large enough effect; inconclusive means small, poorly fitted or top-dose-only effect, or another doubt; inactive means no such curve, though single readings can be large or run the other way;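 further: the enzyme is Sfp with the accession as filed and its product quenches rhodamine fluorescence; potency means the concentration at half of the fitted maximal effect; 0% = enzyme reaction without inhibitor and -100% = no enzyme wells; top concentration of the series not given in the record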
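Compounds were incubated with enzyme (final 15 nM) for 15 min at room temperature before substrate addition started the reaction. Fluorescence at 525 nm excitation, 598 nm emission was recorded immediately and after 30 minutes.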
TRPV1 potentiator: HTS Assay for Compounds that Act as Potentiators of the Vanilloid Receptor 1. Transient receptor potential cation channel subfamily V member 1 (Homo sapiens), Q8NER1. TRPV1-expressing cells, Fluo-8 calcium influx, capsaicin EC20 potentiation; host cell line not named in the record; control for the full effect not named in the record. potentiation, % at 8.33 µM. 0.02% of 320,000 active. AID 540277, 2011; active means potentiation above 80%; inconclusive means 30% to 80%; inactive means below 30%; further: 0% is about no effect
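Cells expressing TRPV1 were dye-loaded with Fluo-8 and read kinetically: 10 s baseline, 3 min after compound (agonist portion), then 2 min after EC20 capsaicin (allosteric enhancer portion). Calcium-bound dye fluorescence at 480/520 nm.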
gsp antagonist: qHTS for Antagonists of gsp, the Etiologic Mutation Responsible for Fibrous Dysplasia/McCune-Albright Syndrome: qHTS; gsp-mutant cells, cAMP HTRF, 30 min; control for the full effect not named in the record; Potency, µM (highest dose often 76.9 µM), for inactives: at the highest dose activity change, negative = inhibition, usual class: inhibitors; 0.4% of 340,000 active; active = falling curve of any shape with a large fitted effect; inconclusive = falling curve, mostly with a smaller effect; inactive = flat or rising curve; cell line not stated here;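 further: intracellular cAMP measured with PDE inhibitor Ro 20-1724 present during compound exposure; potency means the concentration at half of the fitted maximal effect; on the % scale 0 is the no-effect control and ±100 the full control effect; nearly all actives have a fitted effect of over 65% in size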
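HTRF cAMP measurement after 30 min RT detection following 30 min, 37C compound treatment alongside […] (added as 300 uM solution) in G418-selected cells seeded at 2000/well and grown 16–24 h.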
* hit, by the source's call; ? = inconclusive; . = not tested or not shown; [ ] = another dose, or the depositor's remark. Rows were taken by chance, and some 5.1% of all compounds hit somewhere here.

SMILES	ClpP mod	D2 PAM	Menin-MLL FL inh	gsp ag	Sfp inh	TRPV1 potentiator	gsp antagonist
CSCCC(=O)NC1CC(C)(C)Cc2c1cnn2-c1ccccc1C (stereo unspecified)	-0.7%	3	-4.3	16%	15%	-37	?
O=C(CCc1ccccc1)NNC(=O)Nc1cccc(Cl)c1	-0.6%	1	3.8	?	8%	9	2%
C=CCN1C(=O)c2oc3ccccc3c(=O)c2C1c1ccc(O)c(OC)c1 (stereo unspecified)	-1.0%	-11	0.7	-17%	-25%	5	13%
CCC(Sc1nc2ccccc2c(=O)n1CC1CCCO1)C(=O)NCc1cccnc1 (stereo unspecified)	-3.3%	-10	-1.5	-49%[inhibitor]	5%	1	0%
CCCNc1c(NS(=O)(=O)c2ccc(C3CCCCC3)cc2)c(=O)oc2ccccc12	1.4%	-4	.	?	21%	14	7%
COc1ccccc1C(=O)NCC(=O)NCCCN1CCOCC1	-3.1%	-4	.	-40%[inhibitor]	.	-2	9%
COCCN1CCN(C(=O)c2cc(COc3ccc(Cl)cc3OC)on2)CC1	0.9%	-17	.	-3%[15.4 µM]	7%	6	-5%
CNCc1cn2cc(Cl)ccc2n1	6.7%	-2	-0.4	-2%[15.4 µM]	-3%	-5	10%
N#CCc1ccc(NC(=O)/C=C/c2ccc([N+](=O)[O-])o2)cc1	1.3%	-7	13	?	?	12	-11%
O=C(Nc1c2c(nn1-c1ccc(Cl)cc1)CS(=O)(=O)C2)C1CC1	33%	-9	.	-18%	5%	23	8%

Single records, from the list above:
`C=CCN1C(=O)c2oc3ccccc3c(=O)c2C1c1ccc(O)c(OC)c1` (stereo unspecified) is listed with ClpP mod: -1.0%; D2 PAM: -11; Menin-MLL FL inh: 0.7; gsp ag: -17%; Sfp inh: -25%; TRPV1 potentiator: 5; gsp antagonist: 13%
`CCCNc1c(NS(=O)(=O)c2ccc(C3CCCCC3)cc2)c(=O)oc2ccccc12` is listed with ClpP mod: 1.4%; D2 PAM: -4; Menin-MLL FL inh: .; gsp ag: ?; Sfp inh: 21%; TRPV1 potentiator: 14; gsp antagonist: 7%

Next part.
SMILES	ClpP mod	D2 PAM	Menin-MLL FL inh	gsp ag	Sfp inh	TRPV1 potentiator	gsp antagonist
C=CCc1cc(C)ccc1OCCOCCN1CCN(C)CC1	-0.3%	-65	0.3	19%	79µM*	-18	-4%
CCOC(=O)C(=O)Cc1nc2ccccc2s1	2.5%	-11	?	1%	2%	-17	-12%
O=c1cccc2c1c1cc[nH]c3ccc(=O)n2c31	2.4%	3	.	?	.	-1	6%
COc1ccc(-c2c[n+]3c(n2-c2ccccc2)CCCCC3)cc1	0.7%	-1	1.5	23%	17%	1	10%
Cc1ccc(C2=NCCNC2=O)c(C)c1	-2.6%	-3	0.3	-51%[inhibitor]	19%	9	6%
Cc1ccccc1C(=O)Nc1ccc2nc3n(c(=O)c2c1)CCCC3	-0.8%	6	3.5	44%	5%	6	-11%
Cc1ccccc1-n1c(=O)cc(N2CC(C)OC(C)C2)[nH]c1=O (stereo unspecified)	-0.5%	0	6.8	-40%	-21%	27	7%
COc1ccc(CC(=O)Nc2ccc3c(c2)OC2(CCCC2)O3)c(OC)c1	-2.1%	-8	.	-101%[inhibitor]	.	.	.
COCCn1c(SCC(=O)Nc2sccc2C(N)=O)nc2cc(Cl)ccc2c1=O	-5.0%	13	4.1	-2%	-15%	0	?
CCOc1ccc(OCc2ccc(C(=O)N(C)c3ccccc3)o2)cc1	.	-4	-1.1	-48%[inhibitor]	1%	16	-14%
CN(CCc1ccccc1)C(=O)c1ccc(NC(=O)Cc2cccc(NC(=O)C3CCN(C(=O)C4CCCCC4)CC3)c2)cc1	0.5%	4	.	.	.	.	2%
COc1cccc(C2(C)NC(=O)N(CC(=O)c3cc(C)n(C4CC4)c3C)C2=O)c1 (stereo unspecified)	1.5%	4	.	26%	.	-29	-19%
Nc1ccn([C@@H]2O[C@H](CNCc3ccc(C#CCCO)cc3)[C@@H](O)[C@H]2O)c(=O)n1	-2.7%	-3	.	-1%	.	.	.
O=C(NCCO)c1ccc(-c2nnc(N3CCOCC3)c3ccccc23)cc1	-0.8%	1	-2.5	?	10%	4	2%
COc1cccc(C(=O)NCCNC(=O)c2ccco2)c1	.	-1	-2.2	?	-3%	3	9%
COc1ccc2ccc(OC)c(/C=N/n3cnnc3)c2c1	-1.5%	-3	0.4	0%	-4%	?	-2%
COc1ccccc1-c1coc2c(CN3CCCC(C)C3)c(O)ccc2c1=O (stereo unspecified)	4.4%	-4	-7.6	?	14%	-21	2%
C#CCn1ccc(O)c(Cc2c(F)cccc2Cl)c1=O	.	4	-5.3	-23%	31%[activator]	8	1%
CC(C)(C)NC(=O)NC(=O)Cn1cc(C(F)(F)F)ccc1=O	0.6%	-9	-0.1	13%	-13%	28	15%
CCN(CC)Cc1c(O)ccc2c(=O)c(Oc3ccccc3OC)coc12	18µM*	3	6.9	20%	11%	18	10%
Cc1nn(CC(=O)Nc2cccc(O)c2)c(=O)c2ccccc12	-3.6%	-7	.	-30%	.	.	.
Cc1ccc(OCC(=O)Nc2ccccc2N2CCCC2)c(C)c1	.	-1	3.2	-1%	?	-9	-8%
CN(C)C(=O)c1cn(-c2ccccc2)nc1-c1cc2ccccc2o1	.	-3	5.1	?	-1%	-23	?
CCOCCn1c(CN2CCCC(C)C2)nc2c1c(=O)n(C)c(=O)n2C (stereo unspecified)	-2.1%	-6	0.8	?	5%	-10	3%
CCN(C(=O)CSc1nnc(COc2cccc(C)c2)o1)c1nc(C)cs1	.	-2	-1.5	11%	10%	7	8%
Cc1noc(C)c1S(=O)(=O)NCc1cccc(Cl)c1	-1.0%	2	.	-5%	.	-13	10%
CC(C)c1[nH]nc2c1C(C(C)C)C(C#N)=C(N)O2 (stereo unspecified)	-1.7%	2	1.1	-17%	9%	3	-14%
CC(=O)c1ccc(NC(=O)CCC(=O)OCC(=O)c2cccc([N+](=O)[O-])c2)cc1	.	-33	6.1	-41%[inhibitor]	18%	-8	9%
COCCOC(=O)C(CC(=O)O)NCc1ccco1 (stereo unspecified)	-0.1%	-3	0.5	-48%[inhibitor]	?	0	4%
COc1ccc(CCNC(=O)CSc2nnc3ccc(-c4ccccn4)nn23)cc1	0.2%	4	.	-3%	.	-6	-4%
COc1ccc(OC)c(CN2CCCC(C(=O)c3ccccc3SC)C2)c1 (stereo unspecified)	.	-20	0.6	3%	3%	8	-7%
CCc1cc2c(=O)n(CCC(C)C)c(=S)[nH]c2s1	.	2	2.4	-5%[15.4 µM]	11%	-18	-6%
O=C(O)c1cc(S(=O)(=O)N(Cc2ccccc2)c2cccc(C(F)(F)F)c2)ccc1Cl	0.1%	-1	0.0	-14%	21%	3	-18%
COc1cccc(-n2c(C)cc(/C=C3\C(=N)N4N=C(CC(=O)N5CCOCC5)SC4=NC3=O)c2C)c1	-0.4%	-4	6.6	8%	-5%	6	9%
CC(CCc1ccccc1)NC(=O)CCN1N=C(c2ccccc2)CCC1=O (stereo unspecified)	.	-4	1.9	-10%[15.4 µM]	15%	28	-7%
O=C(Nc1cn(-c2ccccc2)nc1-c1ccc(F)cc1)c1ccccc1	43%	-22	2.8	-40%[inhibitor]	10%	1	-7%
CC(C)(C)c1ccc(C(=O)NCCOc2ccccc2F)cc1	0.7%	-13	1.7	-10%	4%	4	0%
COc1ccc(C(N)=O)cc1NC(=O)c1cccc(F)c1	?	-3	3.1	-35%[inhibitor]	20%	?	2%
N#CCC(=O)N/N=C/c1ccc(OCC(=O)Nc2ccc(F)cc2)cc1	-1.3%	0	-1.0	5%	16%	-4	-5%
O=C1CNC(=S)N1Cc1cccc(Cl)c1	2.1%	-16	9.5	0%	4%	7	-2%
COc1cccc(C(=O)Nc2ccc3c(c2)C(=O)NC3=O)c1	6.5%	0	-0.2	5%	2%	3	-2%
O=C(NC1CCCC1)c1cccc(NC(=O)c2ccco2)c1	1.2%	7	0.7	1%	12%	10	2%
CC(C)CNC(=O)c1cccc(NC(=O)c2ccco2)c1	0.1%	5	-1.0	-30%	-1%	-3	1%
CCc1nnc(NC(=O)c2ccc(COc3cccc(C)c3)o2)s1	.	5	-4.4	-12%[15.4 µM]	4%	-5	3%
COc1cc2sc(-c3ccc(S(C)(=O)=O)cc3)c(C(=O)NCCCCO)c2cc1OC	4.4%	1	.	.	.	.	6%
O=C(Cc1cccs1)N/N=C/c1ccccn1	.	-6	2.4	-69%[inhibitor]	?	3	-1%
[O-][n+]1onc2c1CCC1N(O)C(c3ccccc3)CC21O (stereo unspecified)	-5.8%	-11	3.6	?	17%	5	9%
COc1ccc(-c2csc3ncnc(N4CCN(c5ccc(OC)cc5)CC4)c23)cc1	-18%	-2	.	-9%	-6%	-28	?
O=C(Nc1cccc(-n2cnnn2)c1)c1cc(Cl)ccc1Cl	-0.5%	-1	-1.6	0%	5%	-12	-10%
COC(=O)c1nccnc1C(=O)Nc1ccccc1N1CCOCC1	1.6%	1	.	18%	8%	8	8%
Carrying on.
SMILES	ClpP mod	D2 PAM	Menin-MLL FL inh	gsp ag	Sfp inh	TRPV1 potentiator	gsp antagonist
Cc1ccsc1C(=O)OCC(=O)Nc1cccc(S(=O)(=O)N2CCCCC2)c1	-1.2%	-12	.	-44%[inhibitor]	.	.	.
O=C(Nc1ccc(-c2n[nH]c(=S)o2)cc1)c1ccccc1Br	-7.5%	-3	2.5	-31%[inhibitor]	-7%	26	-21%
O=C(COC(=O)/C=C/c1ccc(Cl)cc1)NC1CCCC1	-2.4%	-2	.	21%	.	-5	4%
COc1cccc(CNC(=O)CC2C(=O)NCCN2Cc2ccoc2)c1OC (stereo unspecified)	.	10	1.8	-31%[inhibitor]	10%	-1	1%
CC(OC(=O)c1cccs1)C(=O)Nc1nc(-c2ccccc2)cs1 (stereo unspecified)	.	-2	1.4	6%[15.4 µM]	10%	5	-13%
COC(=O)c1c(C)oc2ccc(NS(=O)(=O)c3cccs3)cc12	2.7%	-21	0.7	0%	-7%	2	?
